# Source: PubChem
# Bfl-1 A1 inh: inhibitors of the anti-apoptotic protein A1, read as caspase activation. MEF A1-2A-BIM cells, Caspase-Glo 3/7 luminescence, 3 h; percent of clofoctol response, vehicle zero. caspase activation, % (no concentration beside the values). hit rate 0.066% among 330,000;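 active means over half of replicate activation scores above 10%, or exactly half above 10 with the replicate mean above 10; inconclusive means replicate mean below 10 yet half the replicates above 10; inactive means over half of replicates below 10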;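 further: wells of about 30 µL received 50 nL stock; many hits fall short of the cut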
# RanGTP-Imp inh: disruptors of Ran-importin-beta complex formation – biochemical, FRET, CFP-Ran, YFP-importin-beta, homogeneous, primary screen; inhibition, % (concentration not given with the values); cell-free CFP-Ran/YFP-importin-beta FRET ratio; hit rate 1.1% among 300,000; AID 2216;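 active means most replicates above 15%; inconclusive means exactly half above 15%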;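 further: 0% = DMSO wells and 100% = Ran loaded with GDP instead of GTP; wells of about 40 µL received 100 nL stock; the first replicate is given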
# Beta apoptosis: beta cell apoptosis inhibition; INS-1E cytokine-induced death, ATP luminescence, 48 h; percent of positive-control rescue, neutral wells zero; protection from apoptosis, % (concentration not given with the values); hit rate 0.8% among 300,000; AID 435005;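 active means all replicates at 75% or more, or half of them and the mean; inconclusive means half reach 75% but not the mean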;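 further: 0% = cytokine-treated negative control wells and 100% = positive control rescue; higher means more ATP so stronger rescue from cytokine killing; wells of about 40 µL received 100 nL stock; the first replicate is given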
# MLL AF4-AF9 inh: MLL-AF4/AF9 protein interaction inhibition; hit rate 0.47% among 350,000; P42568; inhibition, % at 10 µM; AlphaScreen, biotin-AF4 peptide binding to FLAG-AF9; AID 651704;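 active means every replicate reaching a set inhibition limit, whatever the replicate mean, cut at about 25% in these data; inconclusive means mean inhibition reaches that limit but some replicates miss it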;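 further: 0% = plate neutral control median and 100% = total signal loss; the record names both 10 and 1 µM as test concentration; the first replicate is given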
# Target sequence (P42568 whole entry, looked up): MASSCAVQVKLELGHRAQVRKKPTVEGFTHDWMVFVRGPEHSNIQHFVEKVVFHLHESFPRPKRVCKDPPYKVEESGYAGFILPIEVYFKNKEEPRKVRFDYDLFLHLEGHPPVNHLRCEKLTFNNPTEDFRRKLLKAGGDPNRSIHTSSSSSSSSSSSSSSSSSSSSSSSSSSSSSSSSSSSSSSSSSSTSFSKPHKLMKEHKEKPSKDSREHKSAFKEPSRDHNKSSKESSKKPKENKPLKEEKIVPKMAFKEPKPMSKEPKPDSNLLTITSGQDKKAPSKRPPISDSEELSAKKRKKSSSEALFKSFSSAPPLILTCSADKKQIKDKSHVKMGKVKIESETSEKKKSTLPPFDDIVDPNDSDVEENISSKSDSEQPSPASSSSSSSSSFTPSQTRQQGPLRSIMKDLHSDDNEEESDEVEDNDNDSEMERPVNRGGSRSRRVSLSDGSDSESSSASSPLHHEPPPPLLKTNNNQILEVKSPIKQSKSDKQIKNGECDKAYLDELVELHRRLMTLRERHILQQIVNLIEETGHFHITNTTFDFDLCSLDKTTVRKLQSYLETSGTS
# Calb FLC: C. albicans growth modulation with fluconazole; hit rate 0.57% among 300,000; growth inhibition, % (test concentration not listed); C. albicans CaCi-2 (fluconazole-resistant clinical isolate) + fluconazole, Alamar Blue growth, 48 h; AID 1979;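 active means most replicates above 75%; inconclusive means exactly half above 75%; inactive means most below 75%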;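 further: all wells also contain fluconazole at 8 µg/ml as a sub-toxic cotreatment; 0% = median of DMSO wells and 100% = median of geldanamycin control wells; wells of about 8 µL received 7.5 nL stock; the first replicate is given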
# Vif TR-FRET: inhibitors of Vif binding to APOBEC3G peptide, primary screen, biochemical, TR-FRET, GST-Vif 1-94, biotin-A3G peptide, dose response retest (AID 1117319) | TR-FRET GST-Vif / biotin-A3G peptide binding; higher % means a stronger effect; test concentration not given here; strong numbers were not always called active | inhibition, %; hits with a dose series show IC50 in µM | hit rate 0.57% among 260,000;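 active means above the screen mean plus three standard deviations and confirmed in dose response; inconclusive means results disagree or hit not tested in dose response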;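 further: Vif residues 1-94 fused to GST binding biotinylated APOBEC3G peptide 110-148; 0% = full assay without inhibitor and 100% = GST in place of GST-Vif; retest series ran down from 100 µM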
# T cruzi inh: blocks replication of Trypanosoma cruzi | T. cruzi beta-gal in NIH3T3, luminescence, 90 h | inhibition, % (no concentration beside the values) | hit rate 1.4% among 300,000 | AID 1885;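 active means mean inhibition across valid replicates above about 55%, limit read from the data; inconclusive means mean below that limit but half or more replicates reach it; inactive means mean below it, under half of replicates reach it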;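 further: signal also drops with host cell toxicity which is not excluded here; 0% = plate median of DMSO wells and 100% = zero luminescence signal; higher percent means less beta-gal luminescence so fewer parasites; stock transfer was 50 nL into about 50 µL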
# Ecoli rRNA inh: inhibitors of bacterial rRNA selective over humanized ribosomes; E. coli WT GFP vs humanized-ribosome RFP mutants, fluorescence, 24 h; hits give low values; DMSO median 0, no signal -100; GFP signal change (wild-type ribosome), % (concentration not given with the values); hit rate 1.6% among 350,000; AID 720706;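 active means significant combined selectivity score with lowered wild-type GFP, culture density cut under 30%, mutant RFP and density less affected; inactive means any of these conditions unmet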; further: one replicate is shown; some compounds called inactive have numbers as strong as hits
# Ecoli rRNA inh OD600: further read-out of Ecoli rRNA inh, marked with its call; OD600 change, %; measured here: OD600 growth;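 optical density of the mix in the first replicate; 0 = DMSO median and -100 = no signal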
# Ecoli rRNA inh RFP: second read-out of Ecoli rRNA inh, no call of its own (marks repeat the call); RFP signal change, %; measured here: RFP humanized mutant strains;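 first replicate; 0 = DMSO median and -100 = no signal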
# Numbers without * were called inactive; ? = inconclusive; . = not tested or not shown; & = joins results of further samples. Only part of the results is shown; the hit share may differ from the screen's.
nr	compound	Bfl-1 A1 inh	RanGTP-Imp inh	Beta apoptosis	MLL AF4-AF9 inh	Calb FLC	Vif TR-FRET	T cruzi inh	Ecoli rRNA inh	Ecoli rRNA inh OD600	Ecoli rRNA inh RFP
1	Cc1c(CN2CCC(C(=O)Nc3ccc(Oc4ccccc4)nc3)CC2)cnn1C	1.0	0.9	-3	-8.6	-2	.	21	6	4	0.0
2	CCOc1ccc(N/C=C/C(=O)c2ccc(OC)cc2)cc1	-0.2	3.3	-6	-2.8	2	-6%	6	4	7	-0.8
3	O=C(NC(=S)NC(=O)c1ccccc1F)c1ccccc1F	0.3	-1.2	-5	1.6	?	28%	14	-6	11	-11
4	CC1(C)NC(=O)N(CC(O)CN2C(=O)CCC2=O)C1=O (stereo unspecified)	0.5	-1.0	1	.	4	-1%	-11	.	.	.
5	Cc1ccc(-n2c(Cn3ncc4ccccc4c3=O)n[nH]c2=S)cc1	-0.2	5.2	-10	-13	1	-2%	4	12	9	1.6
6	CCN(CC)C(=O)C1(P(=O)(c2ccccc2)c2ccccc2)CCC1	0.8	4.0	.	.	19	12%	-13	14	3	1.2
7	COc1ccc(C)cc1S(=O)(=O)NCc1cccs1	0.0	5.9	.	-2.4	2	.	-3	-4	-5	3.2
8	O=C1N(C2CCCC2)C[C@@H]2C[C@@H](c3cccn3-c3ccccn3)N3CCC[C@@]123	-0.1	4.1	-5	0.7	6	-3%	14	10	4	7.2
9	Cn1c(=O)[nH]c2cc3ccccc3cc21	1.4	0.3	2	.	-1	20%	-19	.	.	.
10	CCOC(=O)N1CCN(C(=O)c2ccc(CSc3ccc(Cl)cc3)cc2)CC1	.	3.5	.	-3.2	8	-3%	27	-28	-41	-12
11	CN(C)CCOCCSc1ccc(Cl)cc1	0.3	0.3	-4	.	?	61%	47	.	.	.
12	O=C(c1cccc(-n2cnnn2)c1)N1CC=C(c2ccccc2)CC1	0.6	2.0	-6	.	9	9%	2	.	.	.
13	COC(=O)c1ccccc1Nc1ccccc1	?	-4.9	1	.	6	1%	-4	.	.	.
14	NC(=O)C(c1ccccc1)c1ncc(C(F)(F)F)cc1Cl (stereo unspecified)	1.3	3.5	1	.	-9	26%	-3	.	.	.
15	Cc1ccc(CNC(=O)Cn2nnc(C(=O)Nc3ccc(Br)cc3)c2N)cc1	-0.2	-2.4	5	-0.1	-15	.	-26	5	4	-0.4
16	Cc1nc2ccccc2cc1C(=O)NCc1ccc(F)cc1	-1.3	-3.7	12	-3.1	6	-4%	-19	8	-1	1.5
17	Cc1cccc(C)c1OCC(=O)NNC(=O)CCCn1c(=O)oc2ccccc21	0.5	.	-9	-2.0	.	.	.	-2	-7	-0.1
18	Cc1cn([C@@H](CCCCN)C(=O)NCCCCCCCCCCC(=O)N2CCNCC2)nn1	0.8	4.8	1	6.3	-3	.	-12	7	6	1.6
19	O=C(NC1CCN(Cc2ccc(Cl)cc2Cl)CC1)c1ccccc1	0.7	5.5	.	-3.1	-26	-8%	21	5	13	-3.0
20	CCOc1ccccc1NC(=O)c1cc(S(=O)(=O)N2CCN(CC)CC2)ccc1Cl	0.3	0.8	-5	1.7	-18	.	-8	-1	-2	3.3
21	CC(C)c1ccc(S(=O)(=O)N2CCN(C(=O)C3CCCC3)CC2)cc1	-2.1	-1.2	-2	-3.7	6	.	7	-5	-14	-3.0
22	Cc1ccc(CSCC(=O)N2CCN(c3ccccc3)CC2)cc1	-0.2	6.5	-2	-0.6	1	.	-11	-21	-39	-21
23	COCCCn1c(SCC(=O)NC2CCCC2)nnc1-c1ccco1	0.1	.	-2	2.4	-6	1%	-7	9	8	-5.1
24	Cc1ccccc1-c1nn(-c2ccc(F)cc2F)cc1CNCCCN(C)C	0.4	?	2	12	-16	29%	19	14	11	3.1
25	CCN(CC)c1ccc(N=Cc2cc(Br)ccc2O)cc1	-0.9	5.8	13	46*	-5	-7%	61*	-1	1	3.5
26	O=C(CN1C(=O)NC2(CCCC2)C1=O)Nc1ccc(F)cc1	0.1	2.1	0	.	9	5%	-5	12	12	-1.4
27	O=[N+]([O-])c1cccc(NC(=S)N2CCN(S(=O)(=O)c3ccccc3)CC2)c1	0.0	-0.7	2	4.0	-14	.	-6	-2	-1	-1.7
28	COc1ccc(NC(=O)c2cccc(N3C(=O)C4CCC(C)CC4C3=O)c2)c(OC)c1 (stereo unspecified)	-0.2	4.9	.	-0.4	3	.	0	-5	-11	2.4
29	CCn1c(=O)cc(OCC(=O)Nc2nc(C)cs2)c2ccccc21	0.7	0.1	0	-4.6	-2	-2%	-2	2	8	-0.6
30	CCC(C)[C@H](NC(=O)C1CCN(C(=O)[C@H](Cc2ccccc2)NC(=O)OC(C)(C)C)CC1)C(=O)O (stereo partly specified)	-0.1	?	-1	-2.0	-9	8%	4	12	20	0.4
31	CCOC(=O)c1c(C)[nH]c(N=Nc2ccccc2)c1C	-0.9	-0.2	8	.	-13	?	-2	.	.	.
32	COc1ccc(NC(=O)CN2C(=O)COc3ccc(S(=O)(=O)N4CCCCCC4)cc32)cc1	-0.3	2.6	2	-7.5	0	.	13	21	23	3.8
33	CCN(CC)C(=O)c1[nH]cnc1C(=O)N[C@@H](C)C(=O)OCc1ccccc1	0.8	3.9	-8	-1.7	5	0%	-6	5	7	-4.2
34	CCc1ccc(-c2cc3c(=O)n(CC(=O)NCCCN4CCN(CC)CC4)nc(C)n3n2)cc1	-0.2	-3.6	0	3.1	11	.	31	8	9	3.4
35	COc1ccc(CNC(=O)COC(=O)c2n[nH]c3ccccc23)cc1OC	0.6	-2.8	-4	.	-4	4%	0	.	.	.
36	CCOC(=O)C1CCN(C(=O)COC(=O)C23CC4CC(CC(C4)C2)C3)CC1	-0.3	.	-4	0.4	.	.	.	-16	-27	-3.6
37	Cc1nn(CC(=O)N/N=C/c2cccs2)c(C)c1[N+](=O)[O-]	0.8	1.9	2	-0.8	1	1%	-15	25	6	1.4
38	COc1cc(SC)ccc1C(=O)N1CCN(c2ccc(O)cc2)CC1	0.0	0.4	8	1.9	-31	32%	-13	3	3	2.5
39	Cc1ccc(C(=O)OCC(=O)Nc2ccccc2)cc1NC(=O)c1ccco1	-0.3	2.0	-6	.	7	-1%	-1	.	.	.
40	CCOc1ccc(S(=O)(=O)N2CCN(C(=O)c3ccncc3)CC2)cc1	-1.2	1.3	-6	-2.9	1	.	-9	21	18	1.8
41	CCCc1nnc(NC(=O)CCC(=O)N2CCN(S(=O)(=O)c3ccc(F)cc3)CC2)s1	-0.9	2.5	1	-0.6	0	17%	0	9	8	-1.8
42	COc1ccccc1NC(=O)c1ccc(-c2ccccc2F)o1	0.2	-2.6	-6	-16	-7	0%	15	0	13	3.1
43	CCn1cc(CN2CCC(n3nccc3NC(=O)c3cccc(F)c3)CC2)cn1	0.6	-1.7	.	1.3	-8	0%	4	4	-3	-0.7
44	COc1ccc(C)cc1NC(=O)C1CCN(C(=O)c2ccc(C(C)(C)C)cc2)CC1	-0.2	0.4	-4	5.1	-4	.	9	-45	-68	-12
45	c1ccc(-n2cnc3ccccc32)nc1	-0.8	-1.0	-13	-5.3	1	.	-5	1	13	-4.1
46	CC(/C=C/c1ccc(C)o1)=C\C(=O)O	-0.7	-1.7	3	.	4	3%	-13	.	.	.
47	Cc1ccc2nc(Nc3ccccc3)c(C=O)c(=O)n2c1	0.4	-2.2	-3	-7.7	8	.	-2	22	12	2.1
48	Nn1c(SCC(=O)Nc2ccc(S(=O)(=O)N3CCCC3)cc2)nnc1C(F)(F)F	0.3	-1.0	9	.	2	-6%	-1	.	.	.
49	N#Cc1ccccc1Sc1ccccc1C(=O)OCC(=O)N1CCN(C(=O)c2ccco2)CC1	-0.7	-0.7	-5	.	-8	-5%&-1%	7	.	.	.
50	CCN(CC)c1ccc(NC(=O)COc2ccc(N(C)S(=O)(=O)c3cccs3)cc2)cc1	-0.4	6.5	0	6.3	11	-14%	61*	-6	0	-2.4
51	CC(=O)c1cc(-c2ccccc2)n(CC(=O)N2CCN(C3CCCC3)CC2)c1C	-0.4	0.2	-3	.	1	5%	-3	.	.	.
52	CC(C)=CCC(C)(C)CNC(=O)NC1CCCCC1	-0.1	-0.8	4	.	7	17%	10	.	.	.
53	COCCCNC(=O)CCc1c(C)nc2c(c(C)nn2-c2ccc(C)cc2)c1C	0.6	?	-6	0.6	3	1%	-13	5	3	0.4
54	Cc1sc2ncnc(SCC(=O)NC(=O)c3cccn3C)c2c1C	0.4	-0.5	-3	0.7	-16	-2%	-4	7	9	4.4
55	CN1CCC(N(C)C(=O)c2ccccc2F)CC1	-1.2	4.2	3	-1.5	-5	.	29	23	19	1.9
56	CCOC(=O)N1CCN(c2nc3c(C)cccn3c(=O)c2C=O)CC1	0.4	1.7	-8	-2.2	11	-1%	0	2	2	1.4

# Further entries follow:
nr	compound	Bfl-1 A1 inh	RanGTP-Imp inh	Beta apoptosis	MLL AF4-AF9 inh	Calb FLC	Vif TR-FRET	T cruzi inh	Ecoli rRNA inh	Ecoli rRNA inh OD600	Ecoli rRNA inh RFP
57	CCc1ccc(CNc2ccc3c(c2)ncn3CC)cc1	1.0	17*	-5	16	10	-3%	-1	-2	-8	-0.7
58	S=C(NCCc1cccc(Cl)c1)NC1CCCCC1	0.7	-0.2	1	-3.1	-37	0%	7	-56	-83	-19
59	O=C(CSc1nnc(NC(=O)C2CC(=O)N(c3ccc(F)cc3)C2)s1)NC1CCCC1 (stereo unspecified)	0.3	-1.1	-7	-0.9	2	9%	-6	4	9	1.6
60	CCC(C)n1c(=N)c(C#N)cc2c(=O)n3ccccc3nc21 (stereo unspecified)	-0.5	177*	0	.	10	0%	-4	.	.	.
61	CC(C)C(=O)N1CCC(c2nc(-c3ccc(S(=O)(=O)N4CCCC4)cc3)no2)CC1	0.1	1.3	-9	.	-24	0%	6	.	.	.
62	O=C(NCCc1ccccc1)C1CCCN1S(=O)(=O)c1ccccc1 (stereo unspecified)	0.3	-2.7	-11	-3.2	1	.	11	5	6	1.0
63	COC(=O)c1ccc2c(=O)n(-c3ccccc3)c(=S)[nH]c2c1	1.2	?	-6	-2.0	-4	3%	14	-8	-9	0.8
64	CC(C)Oc1cccc(C(=O)Nc2ccc(NC(=O)c3ccco3)cc2)c1	0.3	-1.9	3	.	-6	-3%	7	.	.	.
65	CCOc1ccc(/C=C2/C(=N)N3OC(C)=CC3=NC2=O)cc1OC	0.2	-3.4	-4	-2.0	-3	-39%	0	3	2	-2.0
66	O=C1OCCC1Sc1nnc(-c2ccc(Br)cc2)o1 (stereo unspecified)	-1.5	0.2	0	.	-4	2%	-9	.	.	.
67	O=C(Nc1ccc(Cl)c(Cl)c1)c1ccc(Cn2cc(Cl)cn2)cc1	.	-4.2	.	-1.7	40	.	50	-24	-63	15
